Bioassay records from PubChem BioAssay.
LANA-H2A inh – blocks KSHV LANA binding to histone H2A/H2B; 320,000 tested, 0.6% active; cell-free LANA-H2A/H2B peptide, fluorescence polarization; AID 2629; Q9QR71; inhibition, % (no concentration beside the values); in the data active = inhibition mostly above about 10%, no sharp cut-off; inactive = mostly below about 6.7%;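 also: stock transfer was 7.5 nL into about 10 µL; 0% = median of vehicle wells and 100% = median of positive control wells; one replicate is shown; the record names a cut of 25% in any replicate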
Vif TR-FRET – HIV-1 Vif–A3G interaction blockers – biochemical, TR-FRET, GST-Vif 1-94, biotin-A3G peptide, dose response retest, primary screen (AID 1117319). TR-FRET GST-Vif / biotin-A3G peptide binding; higher % means a stronger effect; test concentration not given here; strong numbers were not always called active. one-dose inhibition, %; IC50 in µM for titrated hits. 260,000 tested, 0.57% active;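 active = above the screen mean plus three standard deviations and confirmed in dose response; inconclusive = results disagree or hit not tested in dose response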;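 also: Vif residues 1-94 fused to GST binding biotinylated APOBEC3G peptide 110-148; 0% = full assay without inhibitor and 100% = GST in place of GST-Vif; retest series ran down from 100 µM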
Bfl-1 A1 inh – inhibitors of the anti-apoptotic protein A1, read as caspase activation; MEF A1-2A-BIM cells, Caspase-Glo 3/7 luminescence, 3 h; percent of clofoctol response, vehicle zero; caspase activation, % (test concentration not listed); 330,000 tested, 0.066% active; AID 2462;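 active = over half of replicate activation scores above 10%, or exactly half above 10 with the replicate mean above 10; inconclusive = replicate mean below 10 yet half the replicates above 10; inactive = over half of replicates below 10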;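 also: wells of about 30 µL received 50 nL stock; many hits fall short of the cut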
E coli growth – E. coli growth inhibition. Escherichia coli growth, OD600, 23 h; active compounds read low. OD600 absorbance (no concentration beside the values). 330,000 tested, 0.21% active. AID 1053175;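 active = OD600 absorbance below the run mean of sample wells minus 3.6 SD, in any replicate, cut at about 0.56 in these data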;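 also: stock transfer was 300 nL into about 60 µL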
B2AR ag – activates human beta-2 adrenergic receptor causing internalization; P07550; response, % (test concentration not listed); Am2.2-beta2AR cells, FAP receptor internalization, flow cytometry; reference of the scale not given here; 340,000 tested, 0.43% active;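 active = response above a set limit, near 3 SD of response in nonfluorescent compounds, cut at about 42% in these data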;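 also: stock transfer was 100 nL into about 11 µL; a reference agonist was the positive control; negative values mostly stem from fluorescent compounds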
Target sequence (P07550 whole entry, looked up): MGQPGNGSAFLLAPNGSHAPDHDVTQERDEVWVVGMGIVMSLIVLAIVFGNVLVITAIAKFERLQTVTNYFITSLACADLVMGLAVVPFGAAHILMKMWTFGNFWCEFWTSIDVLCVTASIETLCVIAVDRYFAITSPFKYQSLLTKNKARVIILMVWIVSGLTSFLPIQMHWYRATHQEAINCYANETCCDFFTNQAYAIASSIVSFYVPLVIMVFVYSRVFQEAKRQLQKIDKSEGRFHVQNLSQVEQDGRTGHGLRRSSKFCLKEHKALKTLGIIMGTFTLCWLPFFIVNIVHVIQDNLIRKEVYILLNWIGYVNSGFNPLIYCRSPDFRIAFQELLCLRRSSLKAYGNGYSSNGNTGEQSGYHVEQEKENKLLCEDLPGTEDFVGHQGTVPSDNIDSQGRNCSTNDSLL
HNF4A DNA FP – change in binding of human HNF4 alpha to DNA; HNF4a-FITC DNA binding, fluorescence polarization, 1 h; activity change, % at 10 µM; 360,000 tested, 0.3% active; in the data active = activity change above about 30%, passing the limit was not always enough;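 also: controls were the assay level and a saturating level of protein; the project sought stronger binding though the title names inhibitors; some compounds called inactive have numbers as strong as hits; positive values seem to mean higher polarization but the record does not say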
Target sequence (P41235 whole entry, looked up): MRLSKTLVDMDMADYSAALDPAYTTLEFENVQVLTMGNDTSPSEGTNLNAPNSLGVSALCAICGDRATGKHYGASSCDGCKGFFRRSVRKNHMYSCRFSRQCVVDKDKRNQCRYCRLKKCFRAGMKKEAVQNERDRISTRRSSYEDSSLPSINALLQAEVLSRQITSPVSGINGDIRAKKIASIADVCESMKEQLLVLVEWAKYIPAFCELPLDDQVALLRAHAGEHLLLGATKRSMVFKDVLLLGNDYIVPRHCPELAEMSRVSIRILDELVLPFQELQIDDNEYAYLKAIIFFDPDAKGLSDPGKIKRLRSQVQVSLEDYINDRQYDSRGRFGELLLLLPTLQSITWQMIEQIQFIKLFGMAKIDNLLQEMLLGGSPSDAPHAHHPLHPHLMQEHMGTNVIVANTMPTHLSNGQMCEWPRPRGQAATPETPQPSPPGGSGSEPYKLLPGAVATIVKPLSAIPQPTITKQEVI
UCH37 inh – blocks the human deubiquitinase UCH37 | purified proteasome/UCH37, Ub-AMC cleavage fluorescence | inhibition, % (no concentration beside the values) | 330,000 tested, 0.33% active | AID 588478;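 active = mean of two replicates above 20%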;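 also: 0% = compound-free wells with enzyme and 100% = wells lacking proteasome; stock transfer was 100 nL into about 20 µL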
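Schedule: 30 min plus 25 min, room temperature / Material: human UCH37 within purified proteasomes / Technique: AMC fluorescence intensity at 355/460 nm / Buffer or medium: pH 7.4 Tris-HCl (50 mM) with ovalbumin, ATP-MgCl2, DTT / Controls: wells without proteasome as full block, compound-free enzyme plus substrate as uninhibited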
The depositor's hits bear a star; u = inconclusive; x = not tested or not shown. Rows are unselected (roughly 2.1% active in at least one column).

SMILES	LANA-H2A inh	Vif TR-FRET	Bfl-1 A1 inh	E coli growth	B2AR ag	HNF4A DNA FP	UCH37 inh
Cc1c(Cl)cccc1NC(=O)COC(=O)CN1C(=O)NC(C)(C)C1=O	-1.0	21.6%	-0.2	0.699	12.1	-0.6	3.6
NS(=O)(=O)c1cccc(NC(=O)CSc2n[nH]c(-c3cccs3)n2)c1	1.1	2.3%	0.4	0.675	-2.7	-1.9	-0.9
Cc1cc(OC(F)F)ccc1NC(=S)NC1CCCC1	-1.8	x	0.6	0.704	-7.0	-0.5	1.0
C=CCN1CCN(C(=O)c2ccc(-c3ccccc3)cc2)CC1	3.8	x	-0.3	0.665	-2.6	6.3	1.1
CCOc1ccc(N(C(C)C(=O)NC2CCCCCC2)S(C)(=O)=O)cc1 (stereo not drawn)	8.4	65.1%	1.5	0.646	-1.0	-0.5	-1.4
CN(C)c1nn(C(=O)Nc2ccc(Cl)cc2Cl)cc1-c1ccccc1	1.8	0.8%	0.0	0.641	0.2	11.7	0.2
CCCc1cc(=O)[nH]c(SCc2ccc(F)cc2)n1	2.9	-6.3%	0.2	0.683	-2.3	-1.2	2.0
CCCCCCC1C(C#N)=C(N)OC2=C1C(=O)CCC2 (stereo not drawn)	1.7	11.7%	0.1	0.728	-8.6	0.4	1.8
O=S(=O)(CCSc1ccccn1)c1nc2ccccc2s1	1.3	2.0%	-0.5	0.682	-0.3	2.2	7.2
O=C(NN1C(=O)/C(=C/c2cccs2)SC1=S)c1ccccc1	-4.1	-11.2%	0.7	0.678	-0.9	0.9	3.1
CCCNC(=O)c1cc(C)no1	-1.0	0.7%	1.1	0.672	5.0	0.7	2.5
O=S(=O)(Nc1ccc(Br)cc1)c1cccc2cccnc12	6.7	x	0.2	0.679	-0.3	-2.3	1.5
COc1ccc(NC2CCCCC2NS(=O)(=O)c2ccc(C)cc2)cc1 (stereo not drawn)	-3.4	-1.2%	-0.1	0.677	6.6	1.7	-0.8
O=S(=O)(O)c1cc(O)c(N=Nc2ccc(O)cc2O)c2ccccc12	x	5.25µM*	x	0.754	3.4	-32.0	30.7*
Cc1ccc(N=C2NC(=O)c3cccc([N+](=O)[O-])c32)cc1	4.1	11.7%	1.2	0.698	5.3	-1.0	2.4
Cc1cccc(C(=O)NCC(=O)Nc2ccncc2)c1	x	-3.2%	0.6	0.673	-10.2	-2.3	2.4
COc1cccc(-c2nnc(SCC(N)=O)n2-c2ccc(Cl)cc2)c1	4.3	-60.5%	0.4	0.682	-2.0	-4.0	5.0
O=C(N1CCCCC1)N1CCN(C(=O)N(c2ccccc2)c2ccccc2)CC1	3.9	u	-0.2	0.705	-13.8	-2.0	4.7
O=C(C[C@H]1C[C@H](C(=O)N2CCOCC2)[C@@]2(CCC3CCCC3)c3[nH]c4ccc(Cl)cc4c3CCN2C1=O)NCc1ccco1	x	4.7%	x	0.698	7.6	1.3	1.6
COc1ccccc1NC(=O)NNC(=O)CCc1ccccc1	1.4	-6.1%	0.1	0.684	2.0	1.8	2.8
O=C(OCc1ccc([N+](=O)[O-])cc1)C1CC(=O)N(Cc2ccccc2Cl)C1 (stereo not drawn)	8.7	x	0.3	x	1.8	-1.2	x
CCn1c(=O)cc(SCC(=O)Nc2ccc(OC)c(OC)c2)c2ccccc21	-2.4	-7.8%	1.0	0.693	-1.1	0.7	5.0
CCN1CCCc2cc(CN(CCN3CCOCC3)C(=S)Nc3ccccc3C)ccc21	-8.2	-5.2%	0.3	0.706	1.5	-1.4	1.4
CCOC(=O)c1ccc(NC(=O)CCn2c(=O)oc3ccccc32)cc1	4.2	x	0.3	0.703	2.5	-0.3	0.8
CC1CCCCN1Cc1ccc(-c2nnn(CC(=O)NC3CCCCC3)n2)cc1 (stereo not drawn)	0.0	7.3%	-0.7	0.696	-1.7	4.2	1.7

Remaining list, next part:
SMILES	LANA-H2A inh	Vif TR-FRET	Bfl-1 A1 inh	E coli growth	B2AR ag	HNF4A DNA FP	UCH37 inh
COc1ccc([N+](=O)[O-])cc1NS(=O)(=O)c1cc(C(=O)NCc2cccnc2)ccc1Cl	-0.6	x	0.2	0.712	-5.1	1.7	9.7
O=C1C2=C(c3ccccc31)[N+](=O)C1CCCCC1N2[O-] (stereo not drawn)	1.0	4.3%	-0.2	0.737	-2.7	-0.5	26.8*
CCCC(=O)Nc1ccc(C(=O)NCCc2ccc(F)cc2)cc1	5.6	12.7%	1.3	0.718	-8.8	1.6	6.5
COc1ccc(C(=O)NCc2ccco2)cc1S(=O)(=O)N1CCOCC1	-0.8	x	0.9	0.64	5.4	0.9	1.2
COC(=O)C1=C(C)NC2=C(C(=O)CC(c3cccs3)C2)C1c1ccsc1 (stereo not drawn)	0.6	3.5%	-0.1	x	2.5	0.2	x
CS(=O)(=O)Nc1ccc(C(=O)NCCSCc2ccccc2)cc1	-4.1	-2.9%	-0.1	0.639	-0.3	3.8	-0.5
Cc1c(Br)c(-c2n[nH]c(=S)n2Cc2ccco2)nn1C	-6.6	21.1%	-0.5	0.714	-3.3	0.4	2.2
O=C(CCC(=O)N1CCN(c2ccccc2)CC1)Nc1nnc(C2CCCCC2)s1	-1.3	-3.0%	0.8	0.719	-3.0	-5.3	4.9
CC(=O)c1cccc(NC(=S)Nc2ccc(F)cc2)c1	3.4	x	-0.3	0.656	2.8	-2.9	1.7
Cc1ccc(CNC(=O)CSc2nc(=O)n3cccc(C)c3n2)cc1	3.1	-1.2%	-0.3	0.692	5.0	-2.7	1.5
CCCCCOCC1CC(C/C(C)=N/NC(N)=O)(C(=O)OCC)C(=O)O1 (stereo not drawn)	1.3	9.4%	1.0	x	-0.4	-0.5	x
CCOc1ccc(S(=O)(=O)NC2CCCCCC2)cc1	1.5	-1.6%	0.3	0.689	2.1	-4.7	3.6
CCCCOCCOCCOCCCC	1.9	x	-0.2	0.656	-3.4	0.1	0.4
CCc1cc(=O)oc2c(C)c(OCC(=O)NCCN3CCOCC3)ccc12	-0.7	x	0.5	0.653	-1.0	1.7	-21.8
COc1cccc(Cn2nc3c4cc(F)ccc4n(Cc4ccc(F)cc4)cc-3c2=O)c1	6.8	0.2%	0.9	0.704	4.9	1.8	2.0
COCCn1c(C)cc(C(=O)CSc2nncn2-c2ccccc2)c1C	-4.4	14.0%	0.1	0.735	1.6	-1.1	7.9
CCCCN(C(=O)CSCC(=O)Nc1ccc(OC)cc1)c1c(N)n(CCC)c(=O)[nH]c1=O	-0.4	2.8%	u	0.669	-6.8	-2.4	0.1
O=C(Nc1c(O)c2ccccc2[nH]c1=O)c1ccco1	-1.6	3.6%	-0.2	0.713	1.8	0.6	6.1
Cc1cc(C)n(-c2ccc(S(=O)(=O)N3CCCC3)cc2[N+](=O)[O-])n1	4.0	12.1%	0.2	0.679	3.2	3.2	3.6
C[n+]1cccc2ccc3c(c21)OC(N)=C(C#N)C3c1ccccc1 (stereo not drawn)	3.7	x	-0.2	x	-1.5	1.9	x
CN(CC(=O)Nc1ccc(S(=O)(=O)N(C)C)cc1)Cc1ccc(C(F)(F)F)cc1	-484.8	5.1%	-0.1	0.7	5.0	6.8	2.9
CCCSc1cc(=O)n(-c2ccc(F)cc2)nc1C(=O)OCC	-4.0	-5.9%	-2.0	0.688	-4.1	1.0	3.3
CC(=O)c1sc(NC(=O)C2CCCN2S(=O)(=O)c2ccccc2F)nc1C (stereo not drawn)	x	x	x	0.703	1.9	5.1	3.9
Cc1ccnc(-n2c(C)cc(/C=N/NC(=O)COc3cccc4cccnc34)c2C)c1	4.4	1.0%	-0.2	x	5.5	1.4	x
c1ccc(C(CN2CCOCC2)c2ccccc2)cc1	-0.3	12.4%	0.2	0.74	1.1	-0.4	4.2

Next records follow.
SMILES	LANA-H2A inh	Vif TR-FRET	Bfl-1 A1 inh	E coli growth	B2AR ag	HNF4A DNA FP	UCH37 inh
Cc1ccc(C(c2nnnn2Cc2cccs2)N2CCN(C(=O)c3ccco3)CC2)cc1 (stereo not drawn)	0.7	-0.3%	1.4	0.731	-15.7	-2.7	3.9
O=C(CSc1nc2c(c(=O)[nH]1)CCC2)Nc1ccccc1Cl	-0.2	x	1.5	0.652	4.5	0.7	5.3
CC(=O)CSc1cc(C)nc2c(-c3ccccc3)c(C)nn12	0.7	-6.5%	-0.4	0.684	-4.5	0.8	-16.3
Cc1ccc(C(C(=O)NC(C)(C)C)N(Cc2cccnc2)C(=O)C(=O)NC2CCCCC2)o1 (stereo not drawn)	-3.0	-1.9%	0.7	0.679	-2.1	4.6	2.2
COc1ccc(NC(C)C(=O)N/N=C/c2ccccc2OCc2cccc(Br)c2)cc1 (stereo not drawn)	3.1	-3.1%	-0.2	x	5.2	-0.9	x
Cc1cccc(C(=O)NC(=S)N2CCN(C)CC2)c1	-3.9	1.4%	0.3	0.709	-4.3	-1.9	0.1
O=C(Nc1ccccc1N1CCOCC1)c1ccc(N2CCCC2=O)cc1	-6.5	-9.2%	0.1	0.674	-4.1	1.3	4.1
CCN(C(=O)COC(=O)C12CC3CC(CC(NC(C)=O)(C3)C1)C2)C1CCCCC1	x	2.4%	x	0.687	-9.9	-0.1	0.6
COc1cc2c(cc1OC)CN(CC(=O)Nc1ccc(S(=O)(=O)N(C)C)cc1)CC2	-0.6	-1.4%	0.0	0.706	-5.0	-0.9	-6.7
COc1ccccc1N1CCN(C(=O)C(=O)c2cn(CC(=O)N3CCOCC3)c3ccccc23)CC1	-1.4	1.8%	-0.2	0.657	-1.2	1.7	4.3
COc1ccc(Cl)cc1NC(=O)CN(C)C(=O)c1cc(-c2cccs2)nn1-c1ccccc1	-0.1	-3.1%	-0.1	0.662	3.7	2.4	3.1
Cc1ccc(S(=O)(=O)C(C#N)c2nc3ccccc3nc2N2CCCC2)cc1 (stereo not drawn)	8.4	3.3%	-0.2	x	-27.2	1.3	x
CN(CCCN1CCCCC1)C(=O)CCc1nnc(C2CCCCC2)o1	4.6	-1.9%	0.1	0.664	9.2	-2.9	1.2
O=C(NCCOc1ccccc1)C(c1ccccc1)c1ccccc1	2.0	0.8%	-0.2	0.693	-0.9	-1.3	3.4
Cc1cc(C)n(Cc2ccc(C(=O)NCc3ccco3)o2)n1	1.9	11.4%	-0.2	0.73	-0.3	0.7	1.2
O=C(NCc1ccncc1)Nc1ccccc1F	3.7	-11.8%	-0.3	0.676	-3.1	2.4	5.3
Cc1nonc1OC(C)CNc1ccc([N+](=O)[O-])cc1 (stereo not drawn)	5.0	-0.1%	-0.3	0.707	2.8	3.9	6.1
CCOC(=O)[C@H]1[C@H]2COc3cc(OC)ccc3[C@@H]2N2C(=O)CN(Cc3ccc(C)cc3)C(=O)[C@@]12C	3.2	x	0.5	x	-3.1	6.9	5.1
O=C(CSc1ncc(S(=O)(=O)c2ccccc2)c(=O)[nH]1)Nc1ccccc1Cl	-1.6	10.4%	-0.3	0.72	-6.2	-1.1	4.1
Cc1ccccc1CN1CCN(C(=O)c2cccc3ccccc23)CC1	-0.1	x	0.2	0.707	5.3	0.9	5.4

Laid out differently: entries from further up
Compound,LANA-H2A inh,Vif TR-FRET,Bfl-1 A1 inh,E coli growth,B2AR ag,HNF4A DNA FP,UCH37 inh
CC(=O)c1sc(NC(=O)C2CCCN2S(=O)(=O)c2ccccc2F)nc1C (stereo not drawn),x,x,x,0.703,1.9,5.1,3.9
Cc1ccnc(-n2c(C)cc(/C=N/NC(=O)COc3cccc4cccnc34)c2C)c1,4.4,1.0%,-0.2,x,5.5,1.4,x
c1ccc(C(CN2CCOCC2)c2ccccc2)cc1,-0.3,12.4%,0.2,0.74,1.1,-0.4,4.2
Cc1ccc(C(c2nnnn2Cc2cccs2)N2CCN(C(=O)c3ccco3)CC2)cc1 (stereo not drawn),0.7,-0.3%,1.4,0.731,-15.7,-2.7,3.9
O=C(CSc1nc2c(c(=O)[nH]1)CCC2)Nc1ccccc1Cl,-0.2,x,1.5,0.652,4.5,0.7,5.3
